Source: PubChem (National Center for Advancing Translational Sciences (NCATS))
TRPV1 PAM: HTS Assay for Compounds that Act as Potentiators of the Vanilloid Receptor 1; potentiation, % at 8.33 µM; TRPV1-expressing cells, Fluo-8 calcium influx, capsaicin EC20 potentiation; host cell line not named in the record; control for the full effect not named in the record; actives 0.02% (n = 320,000); active means potentiation above 80%; inconclusive means 30% to 80%; inactive means below 30%; further: 0% is about no effect
Target sequence (Q8NER1 whole entry, looked up): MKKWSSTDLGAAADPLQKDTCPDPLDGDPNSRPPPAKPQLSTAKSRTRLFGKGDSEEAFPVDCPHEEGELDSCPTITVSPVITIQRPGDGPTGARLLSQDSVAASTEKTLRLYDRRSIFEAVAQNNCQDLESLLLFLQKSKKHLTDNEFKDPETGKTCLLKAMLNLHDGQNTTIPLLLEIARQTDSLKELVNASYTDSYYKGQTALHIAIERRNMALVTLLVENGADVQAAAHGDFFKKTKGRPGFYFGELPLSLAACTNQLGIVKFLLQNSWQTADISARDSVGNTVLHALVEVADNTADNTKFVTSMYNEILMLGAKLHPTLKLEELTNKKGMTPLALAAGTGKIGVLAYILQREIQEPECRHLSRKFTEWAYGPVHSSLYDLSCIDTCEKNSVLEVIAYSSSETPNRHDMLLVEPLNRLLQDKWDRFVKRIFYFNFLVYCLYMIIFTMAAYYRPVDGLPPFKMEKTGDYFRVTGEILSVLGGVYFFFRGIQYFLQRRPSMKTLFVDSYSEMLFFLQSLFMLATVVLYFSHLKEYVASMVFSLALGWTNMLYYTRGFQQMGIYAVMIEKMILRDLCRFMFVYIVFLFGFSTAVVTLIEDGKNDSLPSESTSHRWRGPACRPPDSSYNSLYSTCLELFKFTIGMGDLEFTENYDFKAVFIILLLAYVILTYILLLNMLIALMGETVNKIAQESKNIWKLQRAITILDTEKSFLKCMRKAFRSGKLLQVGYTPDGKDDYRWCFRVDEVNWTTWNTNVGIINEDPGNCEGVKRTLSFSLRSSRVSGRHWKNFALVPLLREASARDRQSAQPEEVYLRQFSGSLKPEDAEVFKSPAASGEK
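TRPV1-expressing cells were cultured overnight at 35.5C and loaded with Fluo-8 calcium dye for 40 to 90 min at room temperature. After a 10 s baseline, compound was added and calcium influx was read kinetically for 3 min (ex 480/em 520 nm).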
Menin MLL FP FL: qHTS Assay for Inhibitors Targeting the Menin-MLL Interaction in MLL Related Leukemias: Competition With Fluorescein Labeled MLL-derived Peptide; Fluorescence polarization, fluorescein-MLL peptide displacement from menin; FP activity change, % at 61.4 µM; 290,000 tested, under 10 active; inconclusive = falling polarisation curve, or a change in total fluorescence; inactive = total fluorescence flat and polarisation flat or rising; no compound was filed as active; the % refers to the polarisation; negative = inhibition;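 further: % of control where 0% means no effect; inhibitors lower the polarisation; unlabelled MLL peptide was the positive control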
Sfp PPTase inh: qHTS Assay for Inhibitors of Bacillus subtilis Sfp phosphopantetheinyl transferase (PPTase) | AID 1490, 2009 | Potency, µM, inactives show max response, negative = inhibition, usual class: inhibitors | Biochemical Sfp PPTase activity, qHTS | actives 3.5% (n = 310,000) | 4'-phosphopantetheinyl transferase ffp (Bacillus subtilis), Q9F4F7; active means well fitted inhibition curve with a large enough effect; inconclusive means small, poorly fitted or top-dose-only effect, or another doubt; inactive means no such curve, though single readings can be large or run the other way;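 further: the enzyme is Sfp with the accession as filed and its product quenches rhodamine fluorescence; potency means the concentration at half of the fitted maximal effect; 0% = enzyme reaction without inhibitor and -100% = no enzyme wells; top concentration of the series not given in the record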
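Fluorescence-quenching assay: 15 nM Sfp-PPTase preincubated 15 min at room temperature with compound, then 5 uM rhodamine-CoA and 12.5 uM BHQ-2-labelled YbbR peptide added. Fluorescence (ex 525/em 598 nm) read at start and after 30 min; difference gives rate.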
PINK1 modulator: A Quantitative High throughput Screen to Identify Chemical Modulators of PINK1 Expression | Potency, µM (titrated, usually from 76.6 µM), inactives show at the top dose activation (PINK1 increase), actives largely listed as activators | PINK1 immunofluorescence, high-content cytometry, 24 h | actives 0.2% (n = 410,000); active = well fitted activation curve with a large enough effect; inconclusive = small, poorly fitted or top-dose-only effect; inactive = flat fitted curve, though single readings scatter; cell line not stated here;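 further: potency means the concentration at half of the fitted maximal effect; % of control where 0% means no effect; nearly all actives have a fitted effect of over 65% in size; a mitochondrial uncoupler was the plate control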
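Fluorescence from anti-PINK1 antibody, together with nuclear and cell stains, was scanned on a laser-scanning cytometer. Before staining, stable-line cells were incubated 24 hours with compounds at 5 concentrations; primary antibody 12 h at 10 degrees C.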
ClpP mod: qHTS Assay for Activators of ClpP; ATP-dependent Clp protease proteolytic subunit (Bacillus subtilis (strain 168)), P80244; purified B. subtilis ClpP, FRET peptide cleavage, 20 min; Potency, µM (titrated, usually from 57.5 µM), for the others: at the highest dose activity change, negative = active; actives 1.9% (n = 340,000); active = well fitted falling curve with a large enough effect; inconclusive = small, poorly fitted or top-dose-only effect; inactive = no such curve, though single readings can be large or run the other way; further: potency means the concentration at half of the fitted maximal effect; the source files actives as falling curves though it sought activators and does not explain the sign; nearly all actives have a fitted effect of over 65% in size; many hits overshoot -100%
Target sequence (P80244 whole entry, looked up): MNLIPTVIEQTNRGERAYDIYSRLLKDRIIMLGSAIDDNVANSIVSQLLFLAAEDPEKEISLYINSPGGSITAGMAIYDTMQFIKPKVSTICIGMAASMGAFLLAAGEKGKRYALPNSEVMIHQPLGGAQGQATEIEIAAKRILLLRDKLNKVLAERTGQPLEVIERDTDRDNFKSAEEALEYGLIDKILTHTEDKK
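ClpP 10 microg/mL final, pH 8 Tris/KCl buffer with BSA, glycerol, Tween-20; compound pinned in; FRET-FV substrate; RT 20 min; Ex320/Em430; ΔFRET vs ADEP 5.8 microM, DMSO, no enzyme.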
TRPML1 inh: qHTS for Inhibitors of the Human Mucolipin Transient Receptor Potential 1 (TRPML1) | Mucolipin-1 (Homo sapiens), Q9GZU1 | TRPML1-inducible cells, Ca2+ dye fluorescence, FDSS; stronger effect = lower value; inhibition of EC80 agonist-evoked calcium signal | activity change, negative = inhibition, % (concentration not given with the values) | actives 0.02% (n = 390,000) | AID 624415, 2012; in the data active means activity change below about -50%; inconclusive means about -30% to -50%; inactive means above about -30%;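 further: stimulus is agonist 54-4 at its EC80 concentration; on the % scale 0 is the no-effect control and ±100 the full control effect; compound concentration not given in the record; the text of the record puts the active cut at -80%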
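Tet-induced TRPML1-DL cells loaded with Ca8 no-wash calcium dye were read kinetically on FDSS. Compound addition was followed by EC80 agonist 54-4 (4 uM final); inhibition was read over 110 s.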
TRPML1 ag: qHTS for Agonists of the Human Mucolipin Transient Receptor Potential 1 (TRPML1) | Mucolipin-1 (Homo sapiens), Q9GZU1 | TRPML1-expressing cells, Ca2+ dye fluorescence, FDSS; host cell line not named in the record; reference of the full effect not given here | activation, % (no concentration beside the values) | actives 0.12% (n = 410,000) | AID 624414, 2012; in the data active = activation above about 50%; inconclusive = about 30% to 50%; inactive = below about 30%; further: 0% is about no effect; the text of the record puts the active cut at 80%
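In this qHTS format, compounds were pin-transferred onto Ca8-dye-loaded TRPML1-DL cells induced with Tet overnight, and intracellular Ca2+ fluorescence was recorded kinetically for 110 s after a 10 s baseline. A subsequent 4uM final 54-4 (EC80) addition followed by a second 110 s read served as the antagonist phase.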
* hit, by the source's call; ? = inconclusive; · = not tested or not shown; [ ] = another dose, or the depositor's remark.

structure	ClpP mod	PINK1 modulator	Menin MLL FP FL	Sfp PPTase inh	TRPML1 inh	TRPV1 PAM	TRPML1 ag
Cc1cccc(OCCNc2nc3c(c(=O)n(C)c(=O)n3C)n2C)c1	-0.4%	3.3%	0.6	0%	-2	2	-0.4
Cc1ccc(Cl)c(OCC(O)CN(CCO)CCO)c1 (centres undefined)	2.4%	-0.8%	0.2	9%	19	-8	0.7
NC(=O)c1ccc(-n2c(CCC(=O)O)ccc2-c2cccs2)cc1	·	-0.6%	1.1	-15%	5	-2	-0.1
CCc1cc2c(=O)c(-c3nc4ccccc4n3C)coc2c(CN2CCCCC2)c1O	-7.0%	-2.2%	-1.5	4%	19	-14	1.1
COc1ccc(-n2nc3c(c2NC(=O)c2c(F)cccc2Cl)CS(=O)C3)cc1 (centres undefined)	-0.9%	2.1%	4.3	-4%	23	-7	-0.6
CC1(C(=O)Nc2cccc(OC(F)(F)F)c2)Cc2c(-c3ccc4c(c3)OCO4)ccnc2O1 (centres undefined)	4.3%	4.5%	·	·	·	·	0.3
CCOC(=O)c1sc(Nc2ccc(Br)cc2)nc1C	0.5%	11%	-0.5	-3%	60	-22	0.2
Nc1cc(=O)[nH]c(SCC(=O)Nc2ccc(Oc3ccccc3)cc2)n1	·	3.5%	·	3%	-5	-13	0.2
CCCCC1C2=C(CCCC2=O)OC2=C1C(=O)CCC2	1.1%	-2.0%	-0.4	17%	20	7	3.0
COC(=O)CCC(=O)NNC(=O)c1ccc(Cl)cc1Cl	0.6%	8.4%[38.3 µM]	2.6	14%	-1	-3	-0.7
Cc1ccnc(NC(=O)c2cc(S(=O)(=O)NCc3ccccc3)ccc2C)c1	-0.1%	1.5%	·	·	10	2	3.2
Cc1ccc2nc3c(cc(C(=O)NCc4ccccc4)c(=N)n3CCCn3ccnc3)c(=O)n2c1	2.9%	?	·	·	18	·	7.9
CCCCNC(=O)c1[nH]c2ccccc2c1Sc1ccc(C)cc1	-11%	1.6%	·	·	11	·	0.1
O=C(Nc1ccc2oc(=O)c(C(=O)O)cc2c1)Oc1ccccc1	·	2.6%	·	·	-4	·	0.6
CCN(c1ccccc1)S(=O)(=O)c1cc(C(=O)OC2CCOC2=O)ccc1C (centres undefined)	1.2%	3.3%	·	·	9	-5	0.6
Cc1ccc(CS(=O)Cc2ccc(C(=O)N3CCOCC3)o2)cc1 (centres undefined)	-0.9%	1.0%	0.2	10%	-4	8	-0.1
CS(=O)(=O)N(CC(=O)N1CCN(c2cccc(Cl)c2)CC1)c1ccccc1	0.2%	0.6%[38.3 µM]	1.1	9%	8	·	-0.5
O=C(c1ccc(C23CC4CC(CC(C4)C2)C3)o1)N1CCOCC1	0.7%	27%[38.3 µM]	1.9	6%	4	5	0.1
CCCCSc1nnc2[nH]c(=O)cc(C)n12	-6.8%	2.0%	·	·	44	·	2.6
CC(NC(=O)COC(=O)c1cc(Cl)nc(Cl)c1)c1ccccc1 (centres undefined)	-0.3%	-1.2%	-1.5	15%	-6	-22	0.6
CCc1ccccc1NC(=O)CN(C)C(=O)CN1C(=O)NC2(CCCCCC2)C1=O	0.2%	-3.5%[38.3 µM]	1.3	12%	2	7	0.7
Cc1ccc(C(=O)NCCc2nnc3ccc(SCC(=O)NCc4ccc(F)cc4)nn23)cc1	-13%	1.4%	0.2	15%	14	-2	0.1
Cc1cc(C)cc(N(C(=O)Cc2cccs2)C(C(=O)NC2CCCC2)c2ccc(C)o2)c1 (centres undefined)	1.1%	15%[38.3 µM]	0.3	16%	2	-20	0.2
CCOc1ccc(CNCc2cccnc2)cc1	0.1%	-2.0%	-0.9	14%	1	2	-0.1
Cc1cnc(CNc2ccnc(-c3ccccc3C)n2)cn1	·	-0.6%	5.2	10%	·	·	·
COc1ccc([C@H]2[C@@H]3C=CCC[C@@]3(C)C(=O)N2Cc2ccccc2)cc1Cl	0.6%	8.8%	3.0	-12%	78	-14	2.0
CCOC(=O)c1c(C)[nH]c(C(=O)N(C)CC(=O)Nc2ccc(OCC)c(OCC)c2)c1C	1.2%	1.5%	·	·	8	·	0.1
CCN(CC)C(=O)CSc1nnc(-c2c[nH]c3ccccc23)o1	-4.0%	0.5%	1.4	17%	5	-24	-0.2
CC(C)(C)OC(=O)N1CCC(c2c(C(=O)NCCN3CCc4ccccc4C3)cnn2-c2ccc(F)cc2)CC1	-5.1%	-1.4%	·	·	0	·	3.1
CCOC(=O)Cc1csc(SCC(=O)Nc2cccc(Cl)c2)n1	-2.4%	0.1%	3.5	1%	-7	-4	0.8
CCC(=O)N1CCN(c2ccc(Cl)cc2NC(=O)Cc2ccc(Cl)cc2)CC1	-2.9%	-4.8%[38.3 µM]	3.0	13%	68	5	1.9
Cc1ccc(-c2ccc(C(=O)O)c(C)n2)cc1	0.5%	1.5%	0.5	26%	5	1	0.0
Cn1nnnc1SCCNC(=O)C1CCC(=O)N(Cc2ccc(Cl)cc2)C1 (centres undefined)	-19%	?	-1.3	7%	1	7	0.1
Cc1ccc(C(=O)O)cc1Nc1nc2ccccc2n2nnnc12	-9.4%	2.3%	·	·	0	·	0.1
COc1cccc(OCCCN2CCCCCC2)c1	·	0.8%	2.2	-18%	-3	5	-0.4
COc1ccc2c(c1)cc1c(=O)n(CC(=O)NCCCN3CCOCC3)nc(C)n12	4.3%	1.0%	0.2	-5%	14	-10	0.0
CCCn1nnc(NC(=O)COc2cc(C)ccc2C(C)C)n1	-0.8%	1.7%[38.3 µM]	-0.1	-10%	16	-2	1.0
O=C(NC1=NCCS1)c1ccccc1F	·	1.9%	·	·	17	·	0.7
Cc1ccc(S(=O)(=O)Nc2cccc(-c3cn4cccc(C)c4n3)c2)cc1	?	-0.5%	·	·	8	·	-0.1
COc1ccc(N(CC(=O)NCc2ccc(Cl)cc2)S(=O)(=O)c2ccccc2[N+](=O)[O-])c(OC)c1	·	6.3%	3.7	-6%	-11	-5	0.0
CCc1cc2c(SCC(=O)Nc3ncc(Cl)c(C)c3Cl)ncnc2s1	-0.6%	4.4%	3.3	-3%	3	-6	-1.2
CC(Sc1nc2ccccc2n1C)C(=O)NC(c1ccccc1)c1ccccc1 (centres undefined)	0.5%	-3.2%	2.8	-3%	13	13	1.1
OC(c1ccccc1)c1ncc(-c2ccc(C(F)(F)F)cc2)[nH]1 (centres undefined)	-7.2%	6.1%	·	·	0	·	0.1
Cn1c2ccccc2c(=O)c2ccc(NCCc3cccs3)cc21	3.7%	1.7%	·	·	4	·	1.6
CCOC(=O)C1=C(N)Oc2c(oc(CO)cc2=O)C1c1ccc(F)c(F)c1 (centres undefined)	1.9%	-0.7%	4.7	17%	-5	10	-1.5
Cc1ccc(N2CC(C(=O)NCc3n[nH]c(=O)c4ccccc34)CC2=O)cc1C (centres undefined)	-3.5%	0.5%	·	·	-4	15	0.5
CN(Cc1nc(-c2ccc(Cl)cc2)no1)C(=O)CCN1C(=O)[C@H]2CC=CC[C@H]2C1=O	-1.8%	-0.8%	-4.1	5%	-1	-9	-0.7
CC(C)(C)OC(=O)N1CSC[C@H]1C(=O)NC[C@H](CC(=O)O)c1ccc(Cl)cc1	0.4%	0.7%	-3.6	14%	-20	0	1.5
CCOC(=O)C1=C(COC(=O)CSc2ccc(C)cc2)NC(=O)NC1C (centres undefined)	0.4%	1.5%	·	·	21	4	0.5
CN(C)S(=O)(=O)c1cccc(NC(=O)c2cc([N+](=O)[O-])ccc2N2CCCCC2)c1	0.2%	-1.1%	·	·	18	-9	0.4
O=c1[nH]c(=O)n(C2OC(CO)C(O)C2O)cc1N1CCOCC1 (centres undefined)	-0.9%	-0.2%	·	·	-3	·	-0.4
CC1(C(=O)NS(=O)(=O)c2ccc(Cl)s2)CCN1C(=O)C1(c2ccc(Cl)cc2)CCC1 (centres undefined)	2.6%	-0.7%	·	·	9	·	1.5
COc1ccc(/C=C2\CCCC3C2=NN(C(=O)CSc2n[nH]c(N)n2)C3c2ccc(OC)cc2)cc1 (centres undefined)	?	-0.4%	-3.0	-4%	-20	16	1.6
O=c1c(Cl)c(Cl)cnn1Cc1nnc(-c2ccc(Cl)cc2)o1	·	-1.7%	5.4	6%	4	10	-0.3
CC12CCC(C(=O)Nc3ccc(Cl)cc3)([C@H](Br)C1=O)C2(C)C (some centres undefined)	·	2.7%	5.4	-12%	-26	14	-0.1
CCN(c1ccccc1)S(=O)(=O)c1ccc(C(=O)Nc2ccccc2OC)cc1	·	0.6%	·	·	-2	·	1.9
O=C(CC1S/C(=N/N=C/c2c[nH]c3ccc(OCc4ccccc4)cc23)NC1=O)Nc1ccccc1 (centres undefined)	-15%	-1.3%	6.6	-17%	3	-5	0.2
COc1ccc(Cl)cc1NC(=O)C(C)N1Cc2ccccc2C1=O (centres undefined)	0.6%	2.6%	·	·	17	·	0.0
COCCn1c(=O)c(-c2cc(F)cc(F)c2)nc2cnc(Nc3cccc(OC)c3)nc21	·	?	?	-6%	·	·	·
CN(C)S(=O)(=O)c1cccc(NC(=S)NCCCn2ccnc2)c1	·	-0.7%	3.1	2%	33	-9	0.4
COc1ccc(C(c2sc3ncnn3c2O)N2CC(C)OC(C)C2)cc1OC (centres undefined)	-6.8%	0.9%	7.6	7%	9	16	0.1
O=C(COc1cccc(NC(=O)c2cccs2)c1)c1ccc(F)cc1	-1.4%	-1.2%	11	17%	-9	-7	0.9
